Assay outcomes from PubChem.
ugtP null kill – compounds lethal to S. aureus RN4220 ugtP deletion mutant; growth inhibition, % (no concentration beside the values); OD600 growth, 16 h; some inactives read as strong as hits; hit rate 0.54% among 330,000;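 active = z-score under -3 and OD600 up to 0.15 on both plates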;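 also: plate controls were untreated wells for no effect and antibiotic for full effect; wells of about 80 µL received 100 nL stock; the first replicate is given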
RN4220 kill – S. aureus RN4220 growth inhibition. inhibition, % (no concentration beside the values). OD600, 16 h. hit rate 0.33% among 330,000;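 active = z-score of -3 or lower and OD600 up to 0.18 on both plates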;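 also: plate controls were untreated cells for no effect and reference antibiotic for full effect; stock transfer was 100 nL into about 80 µL; one replicate is shown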
PrP 5UTR inh – inhibition of PrP 5' UTR reporter expression. hit rate 0.35% among 340,000. cell-based PrP 5' UTR mRNA reporter, plate reader. inhibition, % (no concentration beside the values);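 active = every replicate at 50% or more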;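 also: 0 = median of the neutral control wells; tested in H4 reporter cells; numbers are from one replicate; inactives centre near -14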
Bead autofluor – compound fluorescence in toxin protease inhibitor counterscreen; compound autofluorescence counterscreen, microsphere flow cytometry; hits give high values; fluorescence intensity (test concentration not listed); hit rate 3.1% among 360,000; AID 624483;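 active = at least 3 SD above the mean of all compounds, about 16000 in these data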;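 also: 100 nL of 1 mM stock went into each well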
BJeLR viability – BJeLR cell viability loss; BJeLR (HRASV12) viability, CellTiter-Glo ATP luminescence, 48 h; reference of the scale not given here; inhibition, % (concentration not given with the values); hit rate 0.17% among 300,000; AID 1554;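 active = replicate mean above 50%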;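 also: 50 nL library stock added to about 25 µL; numbers are from one replicate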
Mtb hypoxia rep – reduces hypoxia-regulated biosensor signal in M. tuberculosis. M. tuberculosis hypoxia-regulated fluorescent reporter, fluorescence. fluorescence inhibition, % (no concentration beside the values). hit rate 0.1% among 300,000. AID 1159583;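 active = 35 to 45% if threefold the growth effect, above 45% if 1.5-fold the growth effect; inactive = the rest, general growth blockers included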;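 also: wells of about 50 µL received 100 nL stock; 0% = vehicle wells and 100% = reference inhibitor wells; whole bacteria with a GFP reporter of the hypoxia response; strong numbers were not always called active; many hits fall short of the cut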
Mtb hypoxia rep growth – also measured in Mtb hypoxia rep; calls as there; growth inhibition, %; measured here: M. tuberculosis growth (absorbance);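 0% = vehicle and 100% = reference antibiotic; read after six days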
* = called active by the depositor; x = not tested or not shown; & = joins results of further samples.

Values run as follows: RN4220 kill	PrP 5UTR inh	BJeLR viability	ugtP null kill	Bead autofluor	Mtb hypoxia rep	Mtb hypoxia rep growth
> CSc1nc2ccc(NS(=O)(=O)c3cccc(Cl)c3Cl)cc2s1
    14	-18	-2	-5	2523	5	3
> C/C(=N\NC(=O)c1ccn[nH]1)c1cn(C)nc1C
    x	-43	7	x	3693	x	x
> CCOC(=O)C1=C(O)/C(=C/c2ccc(OCC(=O)O)c(OCC)c2)SC1=Nc1ccc(C)cc1
    6.4	-14	-1	-3	4375	14	5
> Cc1cccc(-n2ccnc2SCC(=O)Nc2nccs2)c1
    1.0	-37	9	-4	2614	x	x
> O=C(c1ccco1)N1CCN=C1SCc1ccccc1F
    3.0	-13	9	3	3953	x	x
> Cc1ccc(C(=O)Nc2ccc(S(=O)(=O)N3CCCC3)cc2)o1
    -1.1	-19	6	1	5745	3	1
> C/C(=N\N1CCN(Cc2ccccc2)CC1)c1ccco1
    x	3	-2	x	2563	x	x
> CCc1nnc(NC(=O)CCC(=O)NCc2ccc(OC)cc2)s1
    5.1	-31	-1	4	x	-19	-8
> Cc1cccc(NC(=S)N=C(N)Nc2nc(C)c3ccc(C)cc3n2)c1
    -3.7	x	x	-28	x	-15	-8
> O=C(Nc1cccc2ccccc12)C1CCN(C(=O)NCc2ccccc2)CC1
    1.0	-23	-6	2	3042	x	x
> CCn1c(=S)[nH]c2cc(Cl)ccc21
    4.3	-8	4	11	4725	1	-1
> CC1CCCCC12NC(=O)N(CC(=O)OCC(=O)NCc1ccc(F)cc1)C2=O (stereo unspecified)
    0.9	8	x	-1	3731	3	-2
> C/C(=N\NC(=O)Cn1nc(C)c(Br)c1C)c1cccs1
    x	-22	8	x	2134	x	x
> Cn1nc(C(=O)Nc2ccc(S(=O)(=O)Nc3ncccn3)cc2)ccc1=O
    3.0	-5	9	-5	4609	x	x
> O=C(O)CCSc1nnc(SCC(=O)NCC(F)(F)F)s1
    3.3	-27	2	4	2358	-3	-1
> Cc1cc(S(=O)(=O)Nc2cccnc2)c(Cl)cc1Cl
    6.3	4	-6	-8	3536	-16	-9
> Cc1ccc(C(=O)O)cc1N=Cc1cc(Br)cc(Br)c1O
    -11	-21	6	15	2391	1	0
> C[C@H](NC(=O)[C@@H]1Cc2ccccc2CN1C(=O)OC(C)(C)C)C(=O)NCC1CCCO1 (stereo partly specified)
    0.6	-24	-8	1	5137	9	8
> Cc1cc(/C=N\NC(=O)CC(=O)NC2CCCCC2)c(C)n1-c1ccc(Cl)c(Cl)c1
    x	13	5	x	24080*	x	x
> Cc1cccc(CNc2ccc(C(CC(N)=O)NC(=O)c3cccc(Br)c3)cc2[N+](=O)[O-])c1 (stereo unspecified)
    1.9	-16	-2	1	3837	7	-10
> CN(C)C(=O)CN1CCN(c2nc3nonc3nc2N2CCCCC2)CC1
    1.2	-22	-8	5	3853	12	5
> CC(C)(C)c1nnc2sc(SCC(O)=C(C#N)c3nc4ccccc4[nH]3)nn2c1=O
    8.9&4.2	-23	x	15&6	4028	0&-3	1&14
> O=c1c2ccccc2nc(COc2ccccc2)n1N=Cc1ccco1
    23	x	x	-2	x	5	2
> CC(=O)Nc1ccc(S(=O)(=O)N2CCN(C(=O)c3ncoc3-c3cccc(F)c3)CC2)cc1
    1.9	-10	-11	12	2925	4	5
> Cc1onc(-c2ccccc2Cl)c1C(=O)N1CCCc2ccccc21
    12	-45	2	0	8107	1	0
> O=C(c1nnc(-c2ccc(Cl)cc2)o1)C1CCCC1
    4.9	-48	3	4	4581	10	7
> CCOC(=O)c1ccc(NC(=O)CSC2=NN3CCCC(=O)N=C3S2)cc1
    -1.8	-9	6	11	5975	8	4
> COc1cccc(C(=O)C2CCCN(Cc3ccccn3)C2)c1 (stereo unspecified)
    -2.4	5	-1	-2	2215	8	5
> O=C(NC1CCCC1)C(c1ccncc1)N(Cc1ccccc1F)C(=O)c1csnn1 (stereo unspecified)
    3.7	-19	1	0	5561	3	7
> Cc1oc(C(C)(C)C)cc1C(=O)NCC(=O)NCC(=O)O
    -2.2	-16	4	4	8865	8	8

(next part)
Values run as follows: RN4220 kill	PrP 5UTR inh	BJeLR viability	ugtP null kill	Bead autofluor	Mtb hypoxia rep	Mtb hypoxia rep growth
> CC1CN(C(=O)c2cc3c(=O)n4ccccc4nc3s2)CC(C)O1 (stereo unspecified)
    5.8	-16	7	1	16544*	5	5
> C/C(=N/NS(=O)(=O)c1ccc(Cl)cc1)c1cccc(O)c1
    x	-11	0	x	5763	x	x
> COc1ccc(NS(=O)(=O)c2ccc(C)c(C(=O)N3CCCCCCC3)c2)cc1
    1.2	-11	-5	-2	5422	-3	-3
> O=C(COC(=O)c1ccccn1)NCc1cccc(Cl)c1
    3.0	-16	x	6	x	2	5
> COc1ccc(OC)c(S(=O)(=O)N/N=C(/C)c2c[nH]c3ccccc23)c1
    x	-6	4	x	6399	x	x
> CCOc1ccc(C(=O)NC(C)(C)CC)cc1
    5.1	-8	4	1	3792	22	13
> O=C(COc1cccc2ccccc12)N1CCN(c2ccccn2)CC1
    0.0	-36	-10	-3	9698	9	10
> O=C(CSc1nc2ccccc2s1)NC(=O)NCc1ccco1
    1.8	-28	10	-7	22313*	6	11
> Cc1c(C(=O)CN2CCSCC2)c2ccccc2n1C
    5.0	-29	-4	1	4007	12	8
> COC(=O)c1ccc2nc(NC(=O)CN3C(=O)CCC3=O)sc2c1
    2.3	-15	2	1	4749	x	x
> COc1ccc(C(CNC(=O)Nc2cccc(C)c2)N2CCN(C)CC2)cc1 (stereo unspecified)
    2.4	-29	3	6	5289	3	3
> Cc1cc(CN(C)C(=O)CC2C(=O)NCCN2Cc2c(F)cccc2Cl)n[nH]1 (stereo unspecified)
    8.1	-13	-7	1	4933	10	10
> COc1cccc(CC(=O)N2CCC(CCC(=O)Nc3cccc(OC)c3)CC2)c1
    1.5	-15	7	12	5816	4	0
> C=C(C)C1CC=C(C)/C(=N/NC(=O)CCCNc2cccc(C)c2)C1 (stereo unspecified)
    x	-10	4	x	2609	x	x
> O=C(CSc1ccccc1F)NC(=O)c1ccc(Cl)cc1
    3.8	-10	x	-1	3772	6	0
> COc1cc(OC)cc(-c2nc3ccccc3c(=O)n2NC(=O)c2cccnc2Cl)c1
    24	-25	-10	-5	2641	3	-4
> Cc1nc2c(C(=O)Nc3ccc(N4CCCC(O)C4)cc3)snc2c(=O)[nH]1 (stereo unspecified)
    -0.6	x	-10	-7	3325	-6	9
> O=C(Nc1ccccc1)c1cccc(S(=O)(=O)Nc2ccccn2)c1
    5.2	-25	-5	7	2214	8	4
> c1ccc(CSc2nnc(Cc3ccccc3)o2)cc1
    13	-29	6	7	4186	-3	-3
> CCC(NC(=O)CCC(=O)N1CCN(S(=O)(=O)c2ccc(C)cc2)CC1)c1ccc(C)cc1 (stereo unspecified)
    2.1	-11	x	-2	2868	-14	-7
> COc1ccc(N2C3=[N+](CC2(C)O)c2ccccc2CC3)cc1 (stereo unspecified)
    -0.3	-34	-4	0	11383	4	14
> O=C1[C@H]2[C@@H](c3ccc(F)cc3)N3C(=O)N(c4ccccc4)C(=O)[C@@]3(Cc3ccccc3)[C@H]2C(=O)N1C1CCCCC1
    x	-32	3	x	3516	x	x
> COC(=O)C(Cc1ccc(OC(=O)c2ccccc2C)cc1)N1Cc2ccccc2C1=O (stereo unspecified)
    1.8	-27	4	23	2421	x	x
> Cc1ccc(Cn2nnc3c(=O)n(CC(=O)c4ccccc4)cnc32)cc1
    0.3	-6	-4	-2	5863	-4	5
> CC1(C)CC(=O)C=C(Nc2ccccn2)C1
    6.0	-7	-6	6	21302*	6	10
> Cc1c(F)cccc1NS(=O)(=O)c1ccccc1C#N
    11	-56	-6	-8	6817	11	10
> CC(C)CC(NC(=O)C(Cc1ccc(OCc2ccccc2)cc1)NC(=O)OC(C)(C)C)C(N)=O (stereo unspecified)
    1.2	-12	5	0	4891	x	x
> CCOC(=O)C(C(=O)Nc1cccc(C)n1)C1CCCCC1 (stereo unspecified)
    5.7	1	4	9	3200	7	1
> Cc1cc(C)nc(N/C(=N/S(=O)(=O)Cc2ccccc2)Nc2ccccc2)n1
    x	-12	-12	x	1993	x	x
> CN(C)c1ccc(/C=N/NC(=O)c2ccc(Cl)cc2)cc1
    x	-13	-2	x	7052	x	x

Next part.
Values run as follows: RN4220 kill	PrP 5UTR inh	BJeLR viability	ugtP null kill	Bead autofluor	Mtb hypoxia rep	Mtb hypoxia rep growth
> Cc1ccc(C2(C)NC(=O)N(CC(=O)Nc3cccnc3Cl)C2=O)cc1 (stereo unspecified)
    -2.8	-16	0	-4	3412	3	2
> Cc1noc(C)c1-c1nc(CS(=O)(=O)c2ccc(Cl)cc2)no1
    4.6	-21	-4	3	6420	15	4
> C[C@H](CO)N1C[C@H](C)[C@@H](CN(C)S(=O)(=O)c2ccccc2)Oc2c(NC(=O)Cc3ccccc3)cccc2C1=O
    -17	-13	x	-3	3509	4	9
> Cc1sc2nc(CN3CCCC3)nc(N3CCN(S(=O)(=O)c4cccc(F)c4)CC3)c2c1C
    2.4	-14	x	-4	5249	-5	12
> O=C(COC(=O)[C@@H]1CCCN1S(=O)(=O)c1ccc(Cl)cc1)NC12CC3CC(CC(C3)C1)C2
    2.6	-23	-10	-10	2035	11	-2
> CC(C)(C)c1ccc(C(=O)CC(Sc2ccc(Cl)cc2)C(=O)O)cc1 (stereo unspecified)
    -3.5	-29	4	55	4415	0	-1
> COc1ccc(C2CC(C(F)(F)F)n3nc(C(N)=O)c(Cl)c3N2)cc1OC (stereo unspecified)
    7.2	-16	3	-12	20210*	-1	11
> C[N+]1=C2CCCCCN2C(O)(c2ccccc2)C1 (stereo unspecified)
    1.4	-10	-2	5	8694	18	11
> CCOC(=O)CN(Cc1ccc(OC)c(OC)c1)S(=O)(=O)c1ccc(OC)cc1
    7.5	-19	-4	8	12637	15	8
> Cc1ccc(NC(=O)c2cnn(-c3ccccc3)c2C)c(C)c1
    1.4	-55	-14	9	3394	9	1
> CCOC(=O)c1cc(NC(=O)Cc2ccc(S(=O)(=O)N3CCOCC3)s2)cc(C(=O)OCC)c1
    4.0	-16	5	-3	5769	8	4
> C=CCOCCn1[nH]c2ccccc2c1=O
    -2.4	-14	x	-1	3834	-7	-6
> COc1ccc(CCNC(=O)CSc2nnc(-c3ccc(F)cc3)o2)cc1OC
    -0.8	-14	-2	-5	9088	8	13
> CC1(C)Cc2ccccc2-c2nnc(SCC(=O)Nc3nc4ccccc4s3)n21
    88*	-22	5	98*	5293	-3	-1
> Oc1c(Br)cc(Br)cc1C=Nc1ccc2c(c1)OCCO2
    -17	-25	1	-7	7927	-3	13
> Cc1c(C(=O)O)sc(S(=O)(=O)N2CCN(C(=O)Cc3ccccc3)CC2)c1C(=O)O
    -0.1	-25	x	1	5747	-9	1
> COc1cccc(/C=C(\C#N)c2nc3ccc(C)cc3[nH]2)c1OCC(=O)O
    1.0	-17	-5	0	4205	-5	-6
> COc1ccc(C)cc1S(=O)(=O)N1c2ccccc2CC1C (stereo unspecified)
    4.0	-1	-3	0	17618*	9	6
> COC(=O)CSc1nc(N)c(C#N)c(C(C)C)c1C#N
    2.5	-5	-17	2	4326	4	6
> Cc1nc2sc3c(c2c(=O)[nH]1)CCCCC3
    6.6	-9	2	9	4243	4	5
> COc1ccc(C)cc1S(=O)(=O)Nc1cc2c3c(c1)CC(=O)N3CCC2
    5.8	-20	6	0	4214	8	10
> COc1ccccc1CN(C)C(=O)c1cccc(S(=O)(=O)N2CCCC2)c1
    -0.8	-21	x	6	3899	-5	-7
> c1ccc(-c2ccc3ccccc3n2)cc1
    10	-58	-1	-12	5607	x	x
> Cc1cc(S(=O)(=O)NCCc2ccncc2)cc(C)c1F
    7.0	-9	-1	4	x	11	14
> NC(=O)SCC(=O)Nc1ccc(Cl)cc1
    12	-12	-14	27	x	1	7

In the list so far, these have a cyano group:
Values run as follows: RN4220 kill	PrP 5UTR inh	BJeLR viability	ugtP null kill	Bead autofluor	Mtb hypoxia rep	Mtb hypoxia rep growth
> CC(C)(C)c1nnc2sc(SCC(O)=C(C#N)c3nc4ccccc4[nH]3)nn2c1=O
    8.9&4.2	-23	x	15&6	4028	0&-3	1&14
> Cc1c(F)cccc1NS(=O)(=O)c1ccccc1C#N
    11	-56	-6	-8	6817	11	10
> COc1cccc(/C=C(\C#N)c2nc3ccc(C)cc3[nH]2)c1OCC(=O)O
    1.0	-17	-5	0	4205	-5	-6
> COC(=O)CSc1nc(N)c(C#N)c(C(C)C)c1C#N
    2.5	-5	-17	2	4326	4	6
